Screens from PubChem.
EPAC1 agonist = validation of human EPAC1 agonists; O95398; Potency, µM, for the others: max response, positive = active, actives largely listed as activators; actives 1% (n = 16,000); EPAC1 Rap1b BODIPY-GDP exchange, fluorescence; active = well fitted activation curve with a large enough effect; inconclusive = small, poorly fitted or top-dose-only effect; inactive = no such curve, though single readings can be large or run the other way;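 note: nearly all actives have a fitted effect of over 70% in size; series mostly up to about 76 or 150 µM; scaled to a cAMP control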
Target sequence (O95398 whole entry, looked up): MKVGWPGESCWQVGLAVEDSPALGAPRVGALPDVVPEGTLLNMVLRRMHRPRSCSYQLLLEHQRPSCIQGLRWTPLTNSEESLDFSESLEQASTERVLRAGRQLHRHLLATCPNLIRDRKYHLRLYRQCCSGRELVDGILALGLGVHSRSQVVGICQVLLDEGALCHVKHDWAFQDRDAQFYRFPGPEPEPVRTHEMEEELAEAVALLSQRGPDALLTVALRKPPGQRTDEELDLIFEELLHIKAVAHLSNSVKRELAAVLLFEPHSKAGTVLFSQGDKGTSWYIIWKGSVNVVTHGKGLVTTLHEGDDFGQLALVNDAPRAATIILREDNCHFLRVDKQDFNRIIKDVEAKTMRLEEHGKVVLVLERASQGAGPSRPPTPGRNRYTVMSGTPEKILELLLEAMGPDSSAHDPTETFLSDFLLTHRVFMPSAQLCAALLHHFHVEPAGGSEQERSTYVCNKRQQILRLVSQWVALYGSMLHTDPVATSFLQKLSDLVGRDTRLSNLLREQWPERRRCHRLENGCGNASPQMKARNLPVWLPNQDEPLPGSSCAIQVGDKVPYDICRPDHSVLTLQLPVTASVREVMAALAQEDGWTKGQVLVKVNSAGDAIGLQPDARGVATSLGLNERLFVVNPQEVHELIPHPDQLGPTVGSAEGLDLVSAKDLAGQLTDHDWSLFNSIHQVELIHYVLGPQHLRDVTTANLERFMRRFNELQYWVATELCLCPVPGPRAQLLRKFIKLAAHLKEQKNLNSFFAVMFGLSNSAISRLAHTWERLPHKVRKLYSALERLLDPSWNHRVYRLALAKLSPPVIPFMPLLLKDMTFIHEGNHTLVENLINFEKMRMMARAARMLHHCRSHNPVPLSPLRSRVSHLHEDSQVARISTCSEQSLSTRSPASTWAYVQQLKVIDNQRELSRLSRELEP
* marks the source's active call; other numbers are inactive results; u = inconclusive; & = joins results of further samples; [ ] = dose if it differs, or a comment. % is set by controls: 0 for no effect and ±100 for the full control effect; potency is the fitted concentration of half-maximal effect. The list is partial, so the mix of outcomes need not match the whole.

Preview (23 entries):
structure	EPAC1 agonist
CCC(=O)O[C@](Cc1ccccc1)(c1ccccc1)[C@H](C)CN(C)C	-102.8%[inhibitor]
CCCN(CCC)[C@@H]1CCc2ccc(O)cc2C1	13.6%&-22.7%
C#CCOS(=O)OC1CCCCC1Oc1ccc(C(C)(C)C)cc1 (stereo not drawn)	-70.8%[inhibitor]
O=C(Oc1ccccc1)N1CCC2(CCN(Cc3nccs3)CC2)CC1	-65.3%[inhibitor]
CC(=O)Oc1c2c(c(CC=C(C)C)c3c1C(=O)C1=CC4CC5C(C)(C)OC(C/C=C(\C)C(=O)O)(C4=O)[C@]15O3)OC(C)(CCC=C(C)C)C=C2 (stereo partly drawn)	-207.3%[inhibitor]
Cc1[nH]c2ccc(O)cc2c1CCN	-14.6%&-9.8%&3.8%
CNCCc1c[nH]c2ccc(O)cc12	3.7%&1.2%
O=C/C=C/c1ccccc1	8.6%
Oc1ccc2c3c1OC1C(O)CC[C@]4(O)C(C2)N(CC2CCC2)CC[C@]314 (stereo partly drawn)	9.7%
CC1N=C(N)OC1c1ccccc1 (stereo not drawn)	-10.3%
CCOC(=O)NC(C)(C)Cc1ccc(Cl)cc1	3.7%
Fc1ccc(C(OCCN2CCN(C/C=C\c3ccccc3)CC2)c2ccc(F)cc2)cc1	u
CC(=O)O[C@H]1C[C@H](O[C@H]2[C@@H](O)C[C@H](O[C@H]3[C@@H](O)C[C@H](OC4CC[C@@]5(C)[C@H](CC[C@@H]6[C@@H]5CC[C@]5(C)[C@@H](C7=CC(=O)OC7)CC[C@]65O)C4)O[C@@H]3C)O[C@@H]2C)O[C@H](C)[C@H]1O[C@@H]1O[C@H](CO)[C@@H](O)[C@H](O)[C@H]1O (stereo partly drawn)	-12.4%
C=C(C)CN1CC[C@@]23c4c5ccc(O)c4O[C@H]2c2[nH]c4ccccc4c2C[C@]3(O)[C@@H]1C5	-5.6%
CO/C=C(/C(=O)OC)c1ccccc1Oc1cc(Oc2ccccc2C#N)ncn1	-96.5%[inhibitor]
CC[N+](C)(CC)CCOC(=O)C(O)(c1ccccc1)c1ccccc1	-2.4%
CC1C(=O)OC2C1CC[C@@]1(C)C=CC(=O)[C@@]3(C)O[C@@]213 (stereo partly drawn)	16.2%
CS(=O)(=O)N1CCC2(CC1)CN(Cc1ccncc1)C2	25.4%
CCC(OC(C)=O)C(CC(C)NC)(c1ccccc1)c1ccccc1 (stereo not drawn)	2.9%
COc1ccc(NC(=O)N2CC3(CCN(C(=O)Oc4ccccc4)CC3)C2)cc1	10.8%
CN1CC[C@@]2(C)c3cc(O)ccc3N(C)[C@@H]12	14.0%
CC(C)C(O)(C(=O)OC[C@@H]1CC[N+]2([O-])CCCC12)C(C)O (stereo partly drawn)	-15.9%
COc1cc2ccc(=O)oc2c2ccoc12	23.5%

All compounds of this part (from the top)
structure	EPAC1 agonist
CCC(=O)O[C@](Cc1ccccc1)(c1ccccc1)[C@H](C)CN(C)C	-102.8%[inhibitor]
CCCN(CCC)[C@@H]1CCc2ccc(O)cc2C1	13.6%&-22.7%
C#CCOS(=O)OC1CCCCC1Oc1ccc(C(C)(C)C)cc1 (stereo not drawn)	-70.8%[inhibitor]
O=C(Oc1ccccc1)N1CCC2(CCN(Cc3nccs3)CC2)CC1	-65.3%[inhibitor]
CC(=O)Oc1c2c(c(CC=C(C)C)c3c1C(=O)C1=CC4CC5C(C)(C)OC(C/C=C(\C)C(=O)O)(C4=O)[C@]15O3)OC(C)(CCC=C(C)C)C=C2 (stereo partly drawn)	-207.3%[inhibitor]
Cc1[nH]c2ccc(O)cc2c1CCN	-14.6%&-9.8%&3.8%
CNCCc1c[nH]c2ccc(O)cc12	3.7%&1.2%
O=C/C=C/c1ccccc1	8.6%
Oc1ccc2c3c1OC1C(O)CC[C@]4(O)C(C2)N(CC2CCC2)CC[C@]314 (stereo partly drawn)	9.7%
CC1N=C(N)OC1c1ccccc1 (stereo not drawn)	-10.3%
CCOC(=O)NC(C)(C)Cc1ccc(Cl)cc1	3.7%
Fc1ccc(C(OCCN2CCN(C/C=C\c3ccccc3)CC2)c2ccc(F)cc2)cc1	u
CC(=O)O[C@H]1C[C@H](O[C@H]2[C@@H](O)C[C@H](O[C@H]3[C@@H](O)C[C@H](OC4CC[C@@]5(C)[C@H](CC[C@@H]6[C@@H]5CC[C@]5(C)[C@@H](C7=CC(=O)OC7)CC[C@]65O)C4)O[C@@H]3C)O[C@@H]2C)O[C@H](C)[C@H]1O[C@@H]1O[C@H](CO)[C@@H](O)[C@H](O)[C@H]1O (stereo partly drawn)	-12.4%
C=C(C)CN1CC[C@@]23c4c5ccc(O)c4O[C@H]2c2[nH]c4ccccc4c2C[C@]3(O)[C@@H]1C5	-5.6%
CO/C=C(/C(=O)OC)c1ccccc1Oc1cc(Oc2ccccc2C#N)ncn1	-96.5%[inhibitor]
CC[N+](C)(CC)CCOC(=O)C(O)(c1ccccc1)c1ccccc1	-2.4%
CC1C(=O)OC2C1CC[C@@]1(C)C=CC(=O)[C@@]3(C)O[C@@]213 (stereo partly drawn)	16.2%
CS(=O)(=O)N1CCC2(CC1)CN(Cc1ccncc1)C2	25.4%
CCC(OC(C)=O)C(CC(C)NC)(c1ccccc1)c1ccccc1 (stereo not drawn)	2.9%
COc1ccc(NC(=O)N2CC3(CCN(C(=O)Oc4ccccc4)CC3)C2)cc1	10.8%
CN1CC[C@@]2(C)c3cc(O)ccc3N(C)[C@@H]12	14.0%
CC(C)C(O)(C(=O)OC[C@@H]1CC[N+]2([O-])CCCC12)C(C)O (stereo partly drawn)	-15.9%
COc1cc2ccc(=O)oc2c2ccoc12	23.5%
COP(=S)(OC)Oc1ccc([N+](=O)[O-])cc1	15.9%

A different layout for some results above.
COc1ccc(NC(=O)N2CC3(CCN(C(=O)Oc4ccccc4)CC3)C2)cc1
  EPAC1 agonist: 10.8%
CN1CC[C@@]2(C)c3cc(O)ccc3N(C)[C@@H]12
  EPAC1 agonist: 14.0%
CC(C)C(O)(C(=O)OC[C@@H]1CC[N+]2([O-])CCCC12)C(C)O (stereo partly drawn)
  EPAC1 agonist: -15.9%

Continued.
structure	EPAC1 agonist
ClC1=C(Cl)[C@]2(Cl)[C@@H]3[C@H]4C[C@H]([C@@H]5O[C@H]45)[C@@H]3[C@@]1(Cl)C2(Cl)Cl	3.7%
OC[C@@H](O)[C@H]1O[C@@H]2O[C@@H](C(Cl)(Cl)Cl)O[C@@H]2[C@H]1O	-15.0%
COc1ccc2[nH]cc(CCN(C)C)c2c1	-14.8%
CCCC(C)C1(CC)C(=O)N=C(S)NC1=O (stereo not drawn)	-7.6%&-29.6%
COC1CC(=C(c2cccs2)c2cccs2)C[N+](C)(C)C1 (stereo not drawn)	3.8%
CC(C)NCC(O)c1ccc(N)c(C#N)c1 (stereo not drawn)	4.2%&-8.6%
Cc1cccc(Cc2cnc[nH]2)c1C	-0.1%
Nc1ccc(Sc2ccc(N)cc2)cc1	-64.8%[inhibitor]
COP(N)(=O)SC (stereo not drawn)	25.6%
COc1cc2c(cc1OC)[C@@]13CCN4CC5=CCO[C@H]6CC(=O)N2[C@H]1[C@H]6[C@H]5C[C@H]43	u
OC(c1ccccc1)(c1ccccc1)C1CCNCC1	15.3%
CNC(=O)Oc1ccccc1OC(C)C	6.3%
O=[N+]([O-])c1cc(I)c(O)c(I)c1	-19.6%
Nc1ccccc1C(=O)O	-7.1%
CC(C)(C)OC(=O)c1ncn2c1[C@@H]1CCCN1C(=O)c1c(Br)cccc1-2	-3.3%
COC1=CC=C2[C@H]3Cc4ccc(OC)c5c4[C@@]2(CCN3C)[C@H]1O5	-14.0%&-13.2%
CC(C)=CC1C(C(=O)OCc2cccc(Oc3ccccc3)c2)C1(C)C (stereo not drawn)	u
C[C@]12CC[C@@H]3[C@@H](CCC4=CC(=O)CC[C@@H]43)[C@@H]1CC[C@@H]2OC(=O)CCc1ccccc1	u
CN1C[C@@H](NS(=O)(=O)N(C)C)C[C@@H]2c3cccc4c3c(cn4C)C[C@H]21	-34.3%[inhibitor]
O=C(OCCN1CCCCC1)C(O)(c1ccccc1)c1ccccc1	-8.4%
O=C(O)COc1cc(Cl)c(Cl)cc1Cl	11.8%
CC(=O)[C@H]1CC[C@H]2[C@@H]3CC[C@H]4C[C@](C)(O)CC[C@]4(C)[C@H]3CC[C@]12C	-9.3%&-26.6%
CC(N)[C@@H](O)c1ccccc1 (stereo partly drawn)	1.1%
Oc1ccc([C@H]2CNCc3c2ccc(O)c3O)cc1O	25.4%
C[N+](C)(C)CC#CCN1CCCC1=O	1.6%&-5.7%
C[C@H](N)Cc1cccc(C(F)(F)F)c1	-4.4%
CC(C)(O)C(Cl)(Cl)Cl	-41.9%[inhibitor]
COc1ccc2c3c([nH]c2c1)C(C)=NCC3	u
CC(C)C1C(=O)N2CCCC2[C@]2(O)O[C@@](NC(=O)[C@@H]3C=C4c5cccc6[nH]cc(c56)C[C@H]4N(C)C3)(C(C)C)C(=O)N12 (stereo partly drawn)	13.5%
CN(C)C1C(=O)C(C(N)=O)=C(O)[C@@]2(O)C(=O)C3=C(O)c4c(O)cccc4[C@@](C)(O)C3CC12 (stereo partly drawn)	23.3%
CC(C)[C@@H]1CN[C@H](C(=O)O)[C@@H]1CC(=O)O	9.4%
O=C(CCCN1CCC2(CC1)C(=O)N(Cc1cccc(F)c1)CN2c1ccccc1)c1ccc(F)cc1	17.5%&29.6%
C=C1C([C@@]2(C)C(OC(C)=O)CC(=O)O[C@@](C)(COC(C)=O)C2CC(=O)OC)C(OC=O)C(OC(=O)C(OC(C)=O)C(C)CC)[C@]2(C)C(c3ccoc3)CC(=O)C12O (stereo partly drawn)	-25.6%
O=[N+]([O-])C(Br)(CO)CO	-27.2%
COc1cc2c(cc1OC)[C@@H]1C(=O)c3ccc(O)c(CC=C(C)C)c3OC1CO2 (stereo partly drawn)	u
CC(C)(C)c1o[nH]c(=O)c1CC(N)C(=O)O (stereo not drawn)	4.3%
CCN1C[C@@]2(OC(=O)c3ccccc3NC(C)=O)CCC(OC)[C@@]34C5CC6C(OC)C[C@@](O)(C(CC23)[C@@H]14)C5(O)C6OC (stereo partly drawn)	3.1%
C#CCN1CC(=O)N(COC(=O)C2C(C=C(C)C)C2(C)C)C1=O (stereo not drawn)	-52.0%[inhibitor]
O=CN1CC2CC(C1)c1cccc(=O)n1C2 (stereo not drawn)	-4.0%
NCCc1c[nH]c2ccc(O)cc12	-3.1%&-2.1%&-8.6%&2.1%
COc1ccc(CC2NCC(O)C2OC(C)=O)cc1 (stereo not drawn)	1.9%
CNC1[C@@H](O)C(OC2C(N)C[C@H](N)[C@@H](O[C@@H]3OC(C(C)O)C(O)C(O)C3N)C2O)OC[C@]1(C)O (stereo partly drawn)	u
c1ccc2c(c1)OC[C@@H](C1=NCCN1)O2	4.8%
COC(=O)C1=CCCN(C)C1	4.0%&-3.8%&-7.5%
CC(C)(c1ccc(OC[C@@H]2CO2)cc1)c1ccc(OC[C@H]2CO2)cc1	11.8%
CN(C)C(=O)Oc1cc(OC(=O)N(C)C)cc(C(O)CNC(C)(C)C)c1 (stereo not drawn)	u
Cc1c(C(=O)c2ccc3ccccc3c2)c2cccc3c2n1[C@H](CN1CCOCC1)CO3	u
O=C(O)COc1ccc(Cl)cc1Cl	28.6%
COCC(=O)N1CCC2(CCCN(Cc3ccncc3)C2)CC1	22.5%
C=C1[C@@H](C)[C@H]2[C@H](Cc3ccccc3)NC(=O)[C@]23OC(=O)/C=C/[C@H](O)CCC[C@@H](C)C/C=C/[C@H]3[C@@H]1O	-12.9%
COP(=S)(OC)Oc1cc(Cl)c(Cl)cc1Cl	3.9%&-1.1%
NC(=O)[C@H](Cc1ccccc1)NC(=O)[C@H](Cc1c[nH]c2ccccc12)NC(=O)[C@@H]1CCCN1C(=O)[C@@H](N)Cc1ccc(O)cc1	-8.2%
CC1/C=C/C=C/CC/C=C/C=C/C=C/C=C/C(OC2OC(C)C(O)C(N)C2O)CC2O[C@](O)(CC(O)C(O)CCC(O)CC(O)CC(O)CC(=O)OC(C)C(C)C1O)CC(O)C2C(=O)O (stereo partly drawn)	7.8%
CN1[C@H]2CC[C@@H]1[C@@H](C(=O)O)[C@@H](OC(=O)c1ccccc1)C2	2.8%&10.6%
c1ccc(CCCN2CCN(CCOC(c3ccccc3)c3ccccc3)CC2)cc1	21.6%&8.5%&10.3%
CCCCC/C=C\C[C@@H](/C=C/C=C\C/C=C\CCCC(=O)O)OO	-6.0%
C[C@H](N)C(=O)c1ccccc1	-7.8%&1.8%
